Source: PubChem
HIV Env fusion: HIV envelope-mediated fusion inhibition; AID 651610; HeLa-JRFL Env/CEM21 cell fusion, luciferase; actives 1.1% (n = 360,000); inhibition, % at 12.3 µM;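 active = mean replicate inhibition score of at least 50 and every replicate individually at or above 50; inconclusive = only one of the two criteria met; inactive = mean below 50 and not all replicates reaching 50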;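 also: 0% = plate neutral controls and 100% = maraviroc near 300 nM; one replicate is shown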
Yeast UUG start: alters start codon recognition fidelity in yeast | S. cerevisiae UUG-firefly luciferase reporter, luminescence/redox ratio | activity score, % at 18.7 µM | actives 0.13% (n = 350,000);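 active = replicate mean at a twofold rise or more, about +100% in these data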;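 also: firefly luciferase made from a UUG start codon reports start codon fidelity; reporter light over untreated wells divided by growth signal over untreated wells; some hits fall short of that in this replicate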
Rce1 inhib: inhibitors of yeast Ras-converting enzyme. Q03530. yeast membranes, quenched prenylated peptide cleavage fluorescence. calls only. actives 0.27% (n = 290,000). AID 2563;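 active = fall in fluorescence gain of 50% or more versus controls, with final raw signal at or below 3038400; inconclusive = same 50% fall but final raw signal above 3038400; inactive = fall in fluorescence gain under 50%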;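 also: plate controls were neutral control wells for no effect and wells lacking membranes for full effect; tested at 10 µM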
Target sequence (Q03530 whole entry, looked up): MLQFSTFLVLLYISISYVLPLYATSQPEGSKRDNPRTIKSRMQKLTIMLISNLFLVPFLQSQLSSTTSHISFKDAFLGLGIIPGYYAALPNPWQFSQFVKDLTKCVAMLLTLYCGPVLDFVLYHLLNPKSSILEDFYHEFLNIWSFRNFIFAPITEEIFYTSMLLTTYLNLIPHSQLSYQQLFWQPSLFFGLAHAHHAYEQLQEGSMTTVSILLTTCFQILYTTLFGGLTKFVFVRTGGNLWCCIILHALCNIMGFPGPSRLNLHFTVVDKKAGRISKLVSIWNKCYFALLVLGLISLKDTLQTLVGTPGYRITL
CSC inhib: blocks cancer stem cells; actives 1.1% (n = 300,000); inhibition, % at 7.5 µM; cancer stem cell-like cells viability, luminescence;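 active = mean at 75% or more and at least half the replicates too; inconclusive = mean and replicates disagree; tested in HMLE shEcad cells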;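 also: 0% = median of negative and 100% = median of positive control wells; the first replicate is given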
PABP polyA inh: blocks human PABP binding to poly(A) RNA. P11940. actives 1% (n = 290,000). fluorescence polarization. inhibition, % at 35 µM;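 active = 50% or more with normal probe brightness, or confirmed in later tests; inconclusive = above 50% with abnormal brightness, or retests that disagree; inactive = below 50% or failed in later tests; about a fifth of its hits are not listed in these tables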;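 also: calls also rest on retests at 20 µM and on dose response follow-up; controls were probe without protein and protein plus probe with vehicle; some compounds called inactive have numbers as strong as hits; many hits fall short of the cut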
eIF4H FP inh: inhibitors of RNA binding by human eIF4H | eIF4H fluorescence polarization binding assay | inhibition, % at 35 µM | actives 0.94% (n = 290,000) | AID 2012;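 active = 50% or more with normal probe brightness, or confirmed in later tests; inconclusive = above 50% with abnormal brightness, or retests that disagree; inactive = below 50% or failed in later tests; about a fifth of its hits are not listed in these tables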;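 also: calls also rest on retests at 20 µM and on dose response follow-up; 0% = protein and probe with vehicle and 100% = probe without protein; strong numbers were not always called active; many hits fall short of the cut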
MT1-MMP act inh: inhibitors of human MT1-MMP activation; actives 0.061% (n = 360,000); HT1080 RFP-PRO-GFP cells, GFP/RFP ratio fluorescence, overnight; percent of plate control window, DMSO zero; GFP/RFP ratio change, % at 20 µM;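 active = GFP/RFP ratio change of at least 30% with cell ATP level not reduced by more than half and red fluorescence within 50% of control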; also: strong numbers were not always called active
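Assay system: HT1080 RFP-PRO-GFP cells | Dosing: 20 µM single dose, 1% DMSO | Incubation: Cells overnight before dosing, compound overnight, 37 °C, 5% CO2 | Evaluation: GFP/RFP fluorescence ratio | Control set: DMSO-only wells and HT1080 RFP-L50D-GFP cell wells as references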
MT1-MMP act inh RFP: recorded beside MT1-MMP act inh, whose call it bears; RFP signal change, %; measured here: RFP expression control read;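 0 = vehicle wells; hits needed this value within 50% of zero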
The depositor's hits bear a star; i = inactive; ? = inconclusive; . = no result given; + = active, no number; & = joins results of further samples. The list is partial; the hit share may differ from the screen's.

SMILES	HIV Env fusion	Yeast UUG start	Rce1 inhib	CSC inhib	PABP polyA inh	eIF4H FP inh	MT1-MMP act inh	MT1-MMP act inh RFP
CC(C)Cn1c(=O)c(C(=O)NCc2ccccn2)c(O)c2ccccc21	.	5	i	21	-2	-6	6	-8
Cc1cc(Cl)ccc1Oc1ncnc2onc(C)c12	7	.	i	0	-14	-4	-10	-8
O=C(CSc1nnc(NC(=O)C2CC(=O)N(c3ccc(F)cc3)C2)s1)NCC1CCCO1 (stereo unspecified)	1	-11	i	-23	4	12	0	0
O=C(CCN1C(=O)/C(=C/c2ccc(F)cc2)SC1=S)NCCc1cnc[nH]1	-6	-22	i	6	6	-2	6	6
O=c1c2ccccc2nnn1CSc1nc2ccccc2[nH]1	.	.	i	0	-3	-5	3	-4
COc1cccc(NS(=O)(=O)c2ccc(Br)s2)c1	-69	-7	i	-5	-1	3	-1	2
O=C(NC1CC1)C(Cl)c1ccccc1 (stereo unspecified)	-5	-20	i	-9	9	-1	-2	0
CCOC(=O)CN1C(=O)N[C@@H](CCc2ccccc2)[C@@H](C(=O)OC)[C@H]1C	19	4	i	16	.	.	-1	0
COc1ccccc1-c1nnc(SCC(=O)Nc2nc(-c3ccccc3)cs2)n1C	52	-22	i	-6	-8	0	-6	-17
O=C(O)CSC1c2ccccc2C(=O)N1c1ccccc1 (stereo unspecified)	-90	5	i	-6	-10	-15	0	4
Cc1cc(C(=O)NNC(=S)Nc2cccc(C(F)(F)F)c2)nn1C	-9	-40	i	20	-2	14	3	3
O=C(CCC(=O)OC(C(=O)c1ccccc1)c1ccccc1)Nc1ccccc1 (stereo unspecified)	-69	-10	i	-10	10	-7	1	6
COc1ccccc1C(=O)N1CCN(C(=O)c2ccncc2)CC1	.	-3	i	4	3	5	-6	-5
CN(C)c1ccc(-c2csc(C(O)c3ccc(F)c(F)c3)n2)cc1 (stereo unspecified)	-36	-6	.	.	.	.	-2	-12
O=C1CCC(C(=O)OCC(=O)c2ccccc2)N1 (stereo unspecified)	-2	-8	i	-8	-10	0	-1	5
Cc1ccccc1NC(=O)C(=Cc1ccc(C(=O)O)cc1)C(=O)Nc1ccccc1C	1	.	i	.	-5	12	-4	-21
CC(C)NC(=O)COc1ccc(/C=N/NS(=O)(=O)c2ccccc2)cc1	.	.	i	-5	-7	8	-5	0
COc1ccc(NC(=O)COC(=O)c2cc(C)oc2C)cc1OC	.	6	.	-15	.	.	1	3
Cc1cc(C(=O)COC(=O)Cc2n[nH]c(=O)c3ccccc23)c(C)n1CC(F)(F)F	-16	-16	.	.	.	.	2	-6
Cc1ccc(NC(=O)CCN2C(=O)C3CCCCC3C2=O)c(O)c1 (stereo unspecified)	-5	.	i	-4	.	.	0	3
CC1(C)CC(=O)C(C=Nc2ccncc2)=C(O)C1	.	-11	i	-4	.	.	-2	5
O=C(c1ccc(-c2ccccc2)cc1)N1CCCC1	.	0	i	-9	11	1	-3	-5
CCN(C(=O)CSc1nnc(C2CC2)n1-c1ccccc1)C1CCS(=O)(=O)C1 (stereo unspecified)	.	-14	.	-5	.	.	-1	-1
CC(NC(=O)CCCCCNC(=O)N1CCn2c1nc1ccccc12)c1ccccc1 (stereo unspecified)	10	-1	i	6	5	6	-2	-4
Cc1cc(Br)ccc1NC(=O)CNC(=O)CSc1nccn1C	3	-15	.	-8	.	.	0	1
S=C(/N=c1/sccn1Cc1ccccc1)NC1CC1	23	-22	i	7	2	-3	-1	-2
Cc1ccc(S(=O)(=O)Nc2ccc3cn[nH]c3c2)cc1	9	-14	.	.	.	.	3	1
Cc1ccc(NC(=O)CN(c2ccc(C)cc2)S(=O)(=O)c2cccc3nonc23)cc1	.	.	i	.	-7	-2	-5	-4
COc1ccccc1-n1c(SCC(=O)NC2CCCCC2)nc2c(c1=O)SCC2	-8	9	i	-17	11	-5	3	6
CCn1c(-c2cccs2)nc2ccccc21	.	-19	+	-11	-4	-4	0	-3
O=C(Nc1cccc(NC(=O)c2cc([N+](=O)[O-])ccc2Cl)n1)c1cc([N+](=O)[O-])ccc1Cl	.	.	i	67	.	.	-10	-21
Cc1cc2c(c(=O)n1CCN(C)C)C(c1ccncc1)C(C#N)=C(N)O2 (stereo unspecified)	2	-14	i	16	4	-11	-4	-2
CC1(C)Cc2nc(Cl)c(C(=O)O)cc2CO1	23	-11	i	10	4	0	-3	-1
COc1ccc(C(=O)COC(=O)Cc2n[nH]c(=O)c3ccccc23)c(OC)c1	-14	-23	i	-5	.	.	0	-5
Cc1ccc(S(=O)(=O)N(C)Cc2ccccc2)cc1C(=O)N1CCCCC1	2	10	i	-2	6	-4	3	-7
Cc1cc(C(=O)N2CCC(C(N)=O)CC2)c(C)o1	1	-9	.	.	.	.	-3	4
CC1(C)CC(=O)C2=C(C1)OC(=O)CC2c1cccs1 (stereo unspecified)	2	7	i	-4	-4	-6	7	1
CCOC(=O)C1(C)CCN1C(=O)c1cc(-c2ccc(Cl)cc2)oc1C (stereo unspecified)	8	8	.	.	.	.	0	-11
Cc1ccc(C(=O)N2CC(C)CC(C)C2)cc1S(=O)(=O)N1CCCCC1 (stereo unspecified)	18	5	.	-4	.	.	8	-6
O=C1CN2C(=Nc3ccc(Cl)cc3C2c2ccccc2)CN1 (stereo unspecified)	-29	-18	i	6	0	-6	-13	-4
O=C(Nc1nc2ccccc2s1)C1c2ccccc2Oc2ccccc21	41	-15	i	55	-12	-1	-39	-34
C[C@H](CO)N1C[C@H](C)[C@@H](CN(C)CC2CC2)Oc2c(NS(=O)(=O)c3ccccc3)cccc2C1=O	16	-4&0	.	.	.	.	3	3
CC1(C)Cc2c(sc3c2c(=O)n(Cc2ccccc2)c2nncn32)CO1	.	-4	.	.	-11	-7	-1	2
CC1=NN2C(=N)/C(=C\c3cc(C)n(-c4ccccc4)c3C)C(=O)N=C2S1	12	.	i	-4	-3	-3	0	-1
COCCNC(=O)C(NC(=O)C1CCCCC1)C12CC3CC(CC(C3)C1)C2 (stereo unspecified)	?	-3	i	-4	-7	9	-1	1
CCOC(=O)c1cnc2nc(NCc3ccc(OCc4ccccc4)cc3)[nH]n2c1=O	-8	-5	i	6	18	0	9	-1
O=C(COC(=O)CNC(=O)c1ccc(F)cc1)NC1CCCc2ccccc21 (stereo unspecified)	.	-4	.	8	.	.	0	2
CCC(CC)NC(=O)Nc1ccccc1C	-21	.	.	-5	-5	0	0	4
CC(=O)Oc1ccc(Cl)cc1CN(C(C)=O)C1CCCCC1	?	1	.	.	.	.	-2	-3
COC(=O)c1[nH]c2ccc(F)cc2c1NC(=O)Nc1ccc(OC)cc1	.	-4	i	-8	3	-1	-3	3
O=C1CC(Nc2ccc(N3CCOCC3)cc2)C(=O)N1c1cccc(C(F)(F)F)c1 (stereo unspecified)	.	-17	i	-14	4	-9	9	7
O=C(C1CC1)N1CCN(c2ccc([N+](=O)[O-])cc2)CC1	3	4	i	-7	.	.	6	-3
O=C(O)c1ccccc1C(=O)Nc1ccc(-c2csc(-c3ccccc3)n2)cc1	-68	.	i	11	32	-9	2	-1
COc1cccc(CNC(=O)CCNS(=O)(=O)c2ccc(Br)s2)c1	7	-2	i	-2	0	-10	-3	3
CC1(Cc2ccc3c(c2)OCO3)C(=O)Nc2c(Cl)ccc(Cl)c21 (stereo unspecified)	20	16	.	.	.	.	-4	-1
CCn1c(SCC(=O)c2cc(C)n(C)c2C)nnc1-c1ccccc1	.	-12	i	-6	-2	6	5	2
CCOC(=O)N1CCN(C(=O)CS(=O)(=O)c2cn(Cc3cccc(F)c3)c3ccccc23)CC1	-15	.	i	-4	10	-4	8	-4
c1ccc(CN2CCC(Nc3nc(-c4cccs4)nc4ccccc34)CC2)cc1	-12	.	i	109*	4	3	3	-8
O=C(c1ccc(COc2ccccc2)o1)N1CCN(S(=O)(=O)c2ccccc2Cl)CC1	10	-18	.	.	.	.	-5	-1
CC(C)C12CN(C(=O)c3ccccc3[N+](=O)[O-])CC(C(C)C)(CN(C(=O)c3ccccc3[N+](=O)[O-])C1)C2=O	48	.	i	-10	7	4	-3	3
Remaining list, next part
SMILES	HIV Env fusion	Yeast UUG start	Rce1 inhib	CSC inhib	PABP polyA inh	eIF4H FP inh	MT1-MMP act inh	MT1-MMP act inh RFP
Cn1ncc2c1ncn1nc(CCc3ccccc3)nc21	.	-33	i	3	-8	-3	4	3
Cc1noc(C)c1S(=O)(=O)NCc1ccc(CN(C)C)cc1	.	-9	.	-5	.	.	24	2
COc1ccc(C2c3sc(=O)[nH]c3SC3C4CCC(C4)C23)cc1 (stereo unspecified)	.	.	i	0	-1	-9	-2	2
O=C(O)c1ccc(-c2nc(-c3ccc(Cl)cc3Cl)cs2)cc1	-33	555*	i	0	-3	3	1	0
CC(=O)c1c(C(C)=O)c(C)n(-c2nc(-c3ccc(C)c(C)c3)c(C)s2)c1C	?	8	.	11	1	-2	-7	-14
COc1cc(CN(C)CC2CCCN(CCc3cccc(C(F)(F)F)c3)C2)ccc1O (stereo unspecified)	16	-1	i	10	9	-14	8	2
O=C(CCS(=O)(=O)Cc1ccccc1)NC1CCCCC1	-19	-11	i	6	-3	-5	1	4
COc1ccc(C(OC(=O)c2ccco2)C(=O)NCC2CCCO2)cc1 (stereo unspecified)	15	.	i	-14	5	-2	15	12
COC(=O)c1nn(-c2ccccc2)c(Cl)c1/C=N/OC(=O)c1ccc(Cl)c(Cl)c1	.	-2	i	-8	-1	-3	-8	-3
CCOc1ccc(S(=O)(=O)NCCC(=O)NNC(=O)c2ccc(F)cc2)cc1	3	-8	.	.	.	.	5	5
O=C(C(c1ccccc1)c1ccccc1)N1CCN(CC(O)COc2ccccc2)CC1 (stereo unspecified)	-29	5	i	-1	-2	-12	2	-5
CCCCC(=O)NS(=O)(=O)c1ccc(NS(C)(=O)=O)cc1	.	-15	i	-14	14	12	-4	3
CC(NC(=O)Cc1ccsc1)c1ccc(Cl)cc1Cl (stereo unspecified)	5	-18	i	-4	4	-6	-2	-1
CCOC(=O)Cc1csc(NC(=O)Cc2ccccc2[N+](=O)[O-])n1	6	.	i	2	-3	0	3	2
O=S(=O)(Nc1ccon1)c1cc(Cl)ccc1Cl	.	-11	i	-5	2	-7	-1	2
CCC(Cc1ccccc1)NC(=O)CSc1ccsc1[N+](=O)[O-] (stereo unspecified)	-22	.	i	-3	6	-9	-2	-2
CCOCCn1c(SC(C)C(C)=O)nc2c1c(=O)[nH]c(=O)n2C (stereo unspecified)	0	-11	i	-6	4	-5	4	3
CCCCN1CC(N2CCN(C(=O)c3ccco3)CC2)CS1(=O)=O (stereo unspecified)	4	3	.	.	.	.	-2	-3
COc1ccc(OC)c(NC(=O)c2cc(-c3ccc(F)cc3OC(C)C)n[nH]2)c1	10	-3	.	.	.	.	-2	-15
CCn1c(=O)c2c(nc(SCc3ccccn3)n2C)n(C)c1=O	.	-7	i	.	4	2	7	6

Compound profiles, as listed above.
Listed for `COc1ccc(C(OC(=O)c2ccco2)C(=O)NCC2CCCO2)cc1` (stereo unspecified) → HIV Env fusion = 15; Yeast UUG start = .; Rce1 inhib = i; CSC inhib = -14; PABP polyA inh = 5; eIF4H FP inh = -2; MT1-MMP act inh = 15; MT1-MMP act inh RFP = 12
Listed for `COC(=O)c1nn(-c2ccccc2)c(Cl)c1/C=N/OC(=O)c1ccc(Cl)c(Cl)c1` → HIV Env fusion = .; Yeast UUG start = -2; Rce1 inhib = i; CSC inhib = -8; PABP polyA inh = -1; eIF4H FP inh = -3; MT1-MMP act inh = -8; MT1-MMP act inh RFP = -3
